# Assay outcomes deposited in PubChem by several laboratories.
# PKD1 kinase inh = inhibitors of human PKD1 kinase, biochemical, fluorescence polarization | Serine/threonine-protein kinase D1 (Homo sapiens), Q15139 | PKD1 kinase fluorescence polarization assay | inhibition, %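 (about 10 µM by stock and volumes)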 | 0.056% of 200,000 active;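 active = inhibition of 50% or more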;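 also: controls were vehicle for no effect and a reference inhibitor for full effect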
# INS promoter inh = inhibitors of insulin promoter-driven GFP, primary screen, imaging, TRM-6 cells (human fetal islet line), eGFP reporter, cell count; 0.9% of 130,000 active; inhibition, % at 2 µM; reporter expression induced with tamoxifen; AID 1273, 2008;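 active = inhibition above the mean plus 3 SD, with well images judged a real hit on visual review, cut at about 60% in these data, passing the limit was not always enough; inconclusive = inhibition over the cutoff but images rejected on review; inactive = inhibition not above the cutoff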
# GALR2 agonist = GALR2 receptor agonists, primary screen, cell-based; GALR2-expressing cells, agonist activation read-out; AID 803, 2007; activation, %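 (tested at 5 µM)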; 0.48% of 140,000 active;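 active = above mean plus 3 SD of all compounds, about 5% in these data, not always enough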;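 also: 0% = vehicle buffer wells and 100% = reference agonist at full effect; tested in CHO reporter cells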
# Target sequence (O43603 whole entry, looked up): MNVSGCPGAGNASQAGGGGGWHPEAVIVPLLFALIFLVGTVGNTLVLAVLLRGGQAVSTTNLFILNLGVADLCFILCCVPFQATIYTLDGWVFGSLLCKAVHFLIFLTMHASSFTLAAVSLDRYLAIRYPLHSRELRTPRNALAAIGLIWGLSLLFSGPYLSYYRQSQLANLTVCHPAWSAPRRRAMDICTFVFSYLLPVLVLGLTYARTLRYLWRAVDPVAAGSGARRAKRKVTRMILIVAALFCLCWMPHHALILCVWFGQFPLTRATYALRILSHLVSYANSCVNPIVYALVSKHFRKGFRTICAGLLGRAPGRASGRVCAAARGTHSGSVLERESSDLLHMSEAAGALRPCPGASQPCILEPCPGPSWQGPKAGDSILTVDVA
# HSV augment = enhancers of HSV replication in host cells, fold increase, host cell viability. HSV replication augmentation in cells. maximum fold increase. 0.005% of 220,000 active;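 active = peak rise of 1.5-fold or more in the series; inconclusive = self-fluorescent or not available for retest; tested in PC3 cells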;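 also: first round at 10 µM; read as green reporter fluorescence; hits show the peak of a series up to 25 µM; 1 = signal of infected wells without compound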
# RGS16-Gao = modulators of RGS16 binding to Galphao, primary screen, biochemical, human proteins, multiplexed bead flow cytometry; bead-based flow cytometry RGS16-Galphao binding, fluorescence; actives lie on both sides; binding response (% of control), % at 10 µM; AID 1441, 2008; 0.38% of 220,000 active; Regulator of G-protein signaling 16 (Homo sapiens) + Guanine nucleotide-binding protein …;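 active = below 25% or above 175%, edge rows of some plates excepted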;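 also: Galphao activated by GDP with aluminum fluoride before binding; 100% = wells without compound and 0% = beads without RGS; some results beyond the cut were filed as inactive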
# Target sequence (O15492 whole entry, looked up): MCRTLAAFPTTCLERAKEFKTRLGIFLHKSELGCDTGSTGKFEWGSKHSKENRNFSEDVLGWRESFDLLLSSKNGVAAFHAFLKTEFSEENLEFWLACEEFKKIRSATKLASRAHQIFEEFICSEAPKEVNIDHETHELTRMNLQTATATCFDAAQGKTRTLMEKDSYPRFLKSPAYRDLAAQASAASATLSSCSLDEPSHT
# Target sequence (P09471 whole entry, looked up): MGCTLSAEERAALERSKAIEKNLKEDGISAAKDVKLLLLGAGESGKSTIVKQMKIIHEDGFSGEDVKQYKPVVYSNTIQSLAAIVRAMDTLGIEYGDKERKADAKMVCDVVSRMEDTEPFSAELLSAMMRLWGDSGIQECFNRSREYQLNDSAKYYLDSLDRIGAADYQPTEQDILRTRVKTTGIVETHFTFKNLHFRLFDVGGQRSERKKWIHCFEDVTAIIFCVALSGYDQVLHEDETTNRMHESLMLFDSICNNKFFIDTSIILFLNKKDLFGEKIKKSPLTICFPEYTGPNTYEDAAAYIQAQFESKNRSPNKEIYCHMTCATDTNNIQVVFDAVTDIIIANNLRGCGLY
# INS promoter inh cell count = recorded beside INS promoter inh, whose call it bears; normalized cell count, %; measured here: cell count, toxicity; reference of the scale not given here;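 cells exposed to compound for 48 h; stained nuclei by imaging scaled within each plate; lower means fewer cells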
# HSV augment primary fold = second read-out of HSV augment, no call of its own (marks repeat the call); fold increase; compound at 10 µM; measured here: primary screen fold increase 10 uM; tested in PC3 cells;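 GFP signal in the first replicate; 1 = infected wells without compound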
# Active calls of the source: *; i = inactive; ? = inconclusive; · = not tested or not shown.
SMILES,PKD1 kinase inh,INS promoter inh,INS promoter inh cell count,GALR2 agonist,HSV augment,HSV augment primary fold,RGS16-Gao
CN(C)S(=O)(=O)c1ccc(C(=O)Nc2cccc(C(=O)O)c2)cc1,-5,-17,189,-5.3,i,0.82,109
COc1ccc2cc(/C(C)=N/NC(=O)C3CC3)ccc2c1,0,·,·,·,i,0.92,104
COc1ccc(Cn2c(O)c(/C=N/NC(=O)c3cccnc3)c3ccccc3c2=O)cc1,-8,·,·,·,?,·,103
Cc1onc(-c2ccccc2Cl)c1C(=O)Nc1nnc(-c2ccc(Br)cc2)s1,4,·,·,-2.5,i,0.88,100
CCOCCCn1c(=NC(=O)c2cccnc2)c(C(=O)OCC)cc2c(=O)n3ccccc3nc21,-4,36,111,6.0*,i,0.85,98
CCOc1cccc(C=Nc2cc(C)cc(C)c2O)c1O,0,-8,121,-1.7,i,1.2,97
COC(=O)c1sccc1NC(=O)c1cnc2cc(C)nn2c1C,-10,·,·,·,i,0.98,100
COc1ccc(-c2csc(N3CCN(c4cc(C)nc5ccccc45)CC3)n2)cc1OC,5,·,·,·,i,0.58,99
C=CCN1C(=O)C(CC(=O)Nc2ccc(C)cc2)SC1=Nc1c(C)n(C)n(-c2ccccc2)c1=O (centres undefined),-6,·,·,-1.0,i,1.2,98
CCN(CC)CC#CCOC(=O)C(O)(c1ccccc1)C1CCCCC1 (centres undefined),1,14,133,-1.1,i,0.82,99
NC(=O)CC[C@@H]1NC(=O)[C@H](CO)NC(=O)c2cc([N+](=O)[O-])cc(I)c2OCC[C@@H](C(N)=O)NC1=O,2,-90,78,-1.4,i,0.88,97
O=C(/C=C\Nc1ccc2c(c1)OCO2)c1ccc2c(c1)OCO2,-11,·,·,·,i,1.1,104
COc1ccc(NC(=S)Nc2ccc(S(N)(=O)=O)cc2)c(C)c1,-5,·,·,·,i,1.1,103
Cc1cccc(CSCc2ccc(C(=O)NCC3CCCO3)o2)c1 (centres undefined),3,-27,70,·,i,0.97,101
c1cn(-c2ncnc3sc4c(c23)CCCC4)cn1,-3,·,·,-1.2,i,0.92,125
O=C(O)c1ccc(-n2c(-c3ccc(Br)cc3)n[nH]c2=S)cc1,-5,44,167,-2.8,i,0.98,108
CC(=O)NC(=S)NNC(=O)COc1ccc([N+](=O)[O-])cc1,0,-21,115,·,i,0.91,128
O=C1CC(NNc2nc3ccccc3s2)C(=O)N1c1ccccc1 (centres undefined),-8,·,·,-1.7,i,1,100
COc1nc(OC)nc(N2CCC(C(=O)NC3CC3)CC2)n1,2,-25,51,·,i,1,102
CCOC(=O)c1sc(NC(=O)c2cc3c(s2)CCC(C)C3)nc1C (centres undefined),-2,-29,104,-0.8,i,0.95,104
COc1ccc(-n2c(Cn3c(=O)sc4ccccc43)nnc2SCC(=O)N2CCCCC2)cc1,-10,·,·,-1.1,i,0.84,102
COc1ccc(C(=O)CSc2nc3nc(C)cc(C)c3c(=O)[nH]2)cc1OC,-10,i,45,-1.2,·,·,·
C=CCSc1nn2c(=O)c3ccccc3nc2s1,-1,-130,99,-4.6,i,0.8,94
COc1ccc(Cn2c(CCC(=O)Nc3ccc(CC#N)cc3)nc3cccnc32)cc1,1,29,91,1.7,i,0.97,93

# 3 of the entries above in order of the RGS16-Gao value, highest first.
Molecule,PKD1 kinase inh,GALR2 agonist,HSV augment primary fold,RGS16-Gao
CCOC(=O)c1sc(NC(=O)c2cc3c(s2)CCC(C)C3)nc1C (centres undefined),-2,-0.8,0.95,104
COc1ccc(NC(=S)Nc2ccc(S(N)(=O)=O)cc2)c(C)c1,-5,·,1.1,103
Cc1cccc(CSCc2ccc(C(=O)NCC3CCCO3)o2)c1 (centres undefined),3,·,0.97,101

# The list goes on:
SMILES,PKD1 kinase inh,INS promoter inh,INS promoter inh cell count,GALR2 agonist,HSV augment,HSV augment primary fold,RGS16-Gao
COc1cccc(CC2(CO)CCCN(Cc3nc(-c4cccs4)oc3C)C2)c1 (centres undefined),3,·,·,·,i,1,103
Cc1ccc(C)n1-c1cccc(C(=O)Nc2ccccc2)c1,·,·,·,·,i,0.89,106
Cc1ccc(C(=O)Nc2ccccc2OC(F)F)cc1,-5,40,124,-2.0,i,0.98,107
O=C1C=C(NCc2ccc(Cl)c(Cl)c2)CC1,-3,-43,125,-4.0,i,0.92,98
CN(CCC#N)C(=O)COC(=O)c1cc(Cl)cc(Cl)c1N,1,·,·,·,i,0.81,102
CC(=O)C1=C(O)C(=O)N(c2ccc(Br)cn2)C1c1ccccc1F (centres undefined),-4,46,258,-0.7,i,0.99,104
O=C(CN(CC(=O)N1CCOCC1)S(=O)(=O)c1ccc(Br)s1)N1CCOCC1,-4,-431,55,-0.6,·,·,·
COc1cccc(OCC(=O)NNC(=O)c2cnccn2)c1,-5,57,158,-1.5,i,0.94,99
COc1ccc(CNC(=O)Cn2nc(C(F)(F)F)cc2C)cc1,7,-64,102,·,i,0.96,104
Cc1ccc(N(CC(=O)NN=C2CCN(C)CC2)S(=O)(=O)c2ccc(C)cc2)cc1,-3,64,86,·,i,1,100
Oc1ccccc1CNn1cnnc1,0,·,·,-1.7,i,0.98,102
COc1ccc(C(=O)OCC[N+]2(C)CCOCC2)cc1,3,21,109,·,i,1.1,64

# Some values from the results shown.
# CC(=O)C1=C(O)C(=O)N(c2ccc(Br)cn2)C1c1ccccc1F (centres undefined) in INS promoter inh reads 46
# CN(CCC#N)C(=O)COC(=O)c1cc(Cl)cc(Cl)c1N in RGS16-Gao reads 102

# Next compounds.
SMILES,PKD1 kinase inh,INS promoter inh,INS promoter inh cell count,GALR2 agonist,HSV augment,HSV augment primary fold,RGS16-Gao
Cc1cccc(C)c1NC(=O)C1(N2C(=O)CC2c2ccccc2)CCCCC1 (centres undefined),2,-27,49,-1.7,i,0.92,109
CCOC(=O)c1n[nH]n(-c2cc(Cl)cc(Cl)c2)c1=O,·,·,·,·,i,0.88,95
CCCCCCCc1c(O)nc(SCCN(C)C)[nH]c1=O,·,·,·,·,i,1,109
O=C(COC(=O)CCc1nc2ccccc2s1)Nc1ncc(Cl)cc1Cl,1,·,·,-1.1,i,0.95,107
COc1cc2nc(/C=C/c3cc(OC)c(OC)c(OC)c3)sc2cc1SC,-5,·,·,14*,i,0.94,101
CC(=O)NC(CCS(C)(=O)=O)C(=O)Nc1ccccc1 (centres undefined),14,·,·,-0.7,i,0.94,107
Cc1nnc(SCC(=O)Nc2nsc(-c3ccc(C(C)(C)C)cc3)n2)s1,3,·,·,-3.9,i,0.93,101
Cc1nc(SCC(=O)Nc2ccccn2)n[nH]1,0,·,·,·,i,1,112
COc1ccc(CCCc2nnc(SCC(=O)Nc3ccccc3F)o2)cc1,1,·,·,·,i,0.89,102
O=C(O)C1CC=CCC1C(=O)Nc1cccnc1 (centres undefined),7,33,216,·,i,0.96,106
Cc1c(NC(=O)c2cc(C(C)C)on2)c(=O)n(-c2ccccc2)n1C,-18,·,·,-1.3,i,0.87,110
Cc1ccc(CNc2ccc3nnc(-c4ccccc4)n3n2)cc1,-5,-27,122,-2.9,·,·,94

# Next section; the last 4 above are carried over.
SMILES,PKD1 kinase inh,INS promoter inh,INS promoter inh cell count,GALR2 agonist,HSV augment,HSV augment primary fold,RGS16-Gao
COc1ccc(CCCc2nnc(SCC(=O)Nc3ccccc3F)o2)cc1,1,·,·,·,i,0.89,102
O=C(O)C1CC=CCC1C(=O)Nc1cccnc1 (centres undefined),7,33,216,·,i,0.96,106
Cc1c(NC(=O)c2cc(C(C)C)on2)c(=O)n(-c2ccccc2)n1C,-18,·,·,-1.3,i,0.87,110
Cc1ccc(CNc2ccc3nnc(-c4ccccc4)n3n2)cc1,-5,-27,122,-2.9,·,·,94
Clc1cccc(NCc2ccccc2)n1,2,5,87,·,i,1.2,106
O=[N+]([O-])c1cccc(S(=O)(=O)c2ccc(NCCO)c([N+](=O)[O-])c2)c1,4,·,·,·,i,0.95,93
O=[N+]([O-])c1cc(-n2cnnn2)ccc1N1CCC(Cc2ccccc2)CC1,-4,-38,105,-5.2,i,0.86,101
S=c1[nH]nc(Cn2cnc3ccccc32)n1-c1ccccc1,-2,27,93,·,i,0.94,104
COc1cccc2c(=O)n(CC(=O)Nc3ccc(F)cc3)ccc12,-8,·,·,-2.4,i,0.94,92
COc1cccc(-n2c(N)c(-c3nc4ccccc4[nH]3)sc2=S)c1,-7,-33,117,·,i,0.93,95
S=C(NCc1ccccc1)Nc1cccc(Cl)c1,-13,·,·,0.3,i,0.95,112
O=C(NC1CC1)c1ccc2c(Cl)c3c(nc2c1)CCCC3,0,21,162,·,i,0.92,106
Cc1cc(C)c(COCc2cc(/C=N/O)c(C)cc2C)cc1/C=N/O,0,7,144,-2.2,i,0.73,104
CCOC(=O)c1sc2nc(CSc3ccccc3)nc(N3CCCN(C)CC3)c2c1C,-7,-136,49,·,·,·,196
COCCCNC(=S)N/N=C/c1ccc(N(C)C)cc1,7,21,137,·,i,0.9,100
O=C(CNC(=O)c1ccco1)N/N=C/c1ccccc1[N+](=O)[O-],3,0,124,·,i,1.1,105
COC(=O)c1ccc(N2C(=O)CC(N3CCC(O)(c4ccc(Br)cc4)CC3)C2=O)cc1 (centres undefined),-2,0,119,-1.9,i,1,131
CCN(CC)CC1(O)CCN(C(=O)c2ccc(Cl)c(Cl)c2)CC1,7,-275,33,·,i,1.1,95
O=C(COC(=O)CCSc1ccccc1)Nc1cc(F)ccc1F,-2,·,·,·,i,0.99,98
O=[N+]([O-])c1ccc(F)c(N=Cc2ccc(Br)s2)c1,-8,-31,96,-1.5,i,0.96,98
CC1CCN(C(=O)CCc2ccc(S(=O)(=O)NC(C)C)cc2)CC1,-10,64,143,-1.9,i,0.83,103
CC[n+]1c(P(=O)([O-])c2ccccc2)[nH]c2ccccc21,-2,23,31,-3.3,i,0.99,108
COc1ccc(C2(O)CC3CCC(C2)N3c2cc(C)nc(-c3ccccc3)n2)cc1 (centres undefined),-3,·,·,-0.4,i,0.9,106
Cn1ccnc1/C(=N\NC(=O)c1ccccc1)c1cccc([N+](=O)[O-])c1,-4,-20,100,·,i,0.94,102
CCOC(=O)C1(CC2CCCCO2)CCN(Cc2cc3ccccc3[nH]2)CC1 (centres undefined),-5,0,110,·,i,0.89,104
COCCN=C1NN=C(c2ccc(C)c([N+](=O)[O-])c2)CS1,-4,36,143,·,i,0.97,107
COc1ccccc1NC(=O)CSc1nccc(=O)[nH]1,-7,62,109,-1.0,i,1.1,94
O=C(CSC(=S)N1CCOCC1)c1ccccc1,-4,33,128,-1.2,i,1,104
O=C(NC(=S)Nc1ccc2oc(=O)ccc2c1)c1ccco1,·,·,·,·,i,1,101
O=C(NCC1CCCO1)c1ccccc1S(=O)(=O)c1ccc([N+](=O)[O-])cc1 (centres undefined),1,·,·,·,i,1,97
OC1CCCN(C(=S)NCc2ccccc2)C1 (centres undefined),-5,·,·,·,i,1.2,105
CC(C)C(OC(=O)c1ccco1)C(=O)NC1CCCCC1 (centres undefined),0,-143,59,-1.0,i,1,90
O=c1c(-c2cccc([N+](=O)[O-])c2)[n+]([O-])c2ccccc2n1O,·,·,·,·,i,0.93,98
COc1ccc2nc(/N=C(\N)NC(=O)C(C)(C)C)nc(C)c2c1,3,11,166,-2.8,i,0.42,116
COC(=O)c1c(NC(=O)c2ccccc2)sc(C(N)=O)c1C,3,·,·,·,i,0.96,110
CCCN(CCC)C(=O)C1CC(=O)OC12CCOC(C)(C)C2 (centres undefined),-2,-25,136,0.4,·,·,70
C/C(=N\OCC(=O)O)c1ccc(Cl)cc1,·,·,·,·,i,1,95
O=C(N=Nc1c(O)n(C2OC(=O)c3ccccc32)c2ccccc12)c1ccco1 (centres undefined),·,·,·,·,i,0.92,103
Cc1cc(C)n(-c2nc3c(c(=O)[nH]c(=O)n3C)n2Cc2ccc(F)cc2)n1,-10,31,139,-3.2,i,0.91,90
O=C(Oc1ccc(-c2cnc3ccccc3n2)cc1)c1ccco1,-9,·,·,0.1,i,1,86
COc1cc(/C=C2/SC(=S)N(CC3CCCO3)C2=O)ccc1O (centres undefined),-5,·,·,0.2,?,·,92
COc1cccc(CNC(=O)CN(C)S(=O)(=O)c2cccc3cccnc23)c1,·,·,·,·,i,1.1,98
COc1cc([N+](=O)[O-])cc2sc(NC(=O)C(C)(C)C)nc12,-3,·,·,·,i,0.98,105
